From PubChem BioAssay
D2 PAM – human D2 receptor positive allosteric modulation; DiscoveRx D2 beta-arrestin cells, luminescence, 90 min; 100% = 57 uM dopamine signal; potentiation, % (test concentration not listed); actives 0.23% (n = 360,000); active = potentiation of 50% or more; inconclusive = 30% to 50%; inactive = 30% or less;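 also: compound concentration not given in the record; tested on top of an EC20 dose of dopamine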
Target sequence (P14416 whole entry, looked up): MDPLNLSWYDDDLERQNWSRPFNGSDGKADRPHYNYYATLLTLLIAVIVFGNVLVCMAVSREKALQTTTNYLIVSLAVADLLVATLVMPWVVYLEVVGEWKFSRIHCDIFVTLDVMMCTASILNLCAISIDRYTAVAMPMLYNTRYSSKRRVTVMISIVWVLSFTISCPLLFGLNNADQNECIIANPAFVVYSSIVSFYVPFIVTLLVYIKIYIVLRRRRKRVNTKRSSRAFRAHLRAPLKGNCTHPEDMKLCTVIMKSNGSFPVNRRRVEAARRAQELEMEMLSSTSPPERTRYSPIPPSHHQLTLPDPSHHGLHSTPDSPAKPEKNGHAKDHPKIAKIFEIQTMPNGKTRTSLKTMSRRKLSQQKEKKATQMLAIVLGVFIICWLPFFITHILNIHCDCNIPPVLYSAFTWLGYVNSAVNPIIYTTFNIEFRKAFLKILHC
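PathHunter beta-arrestin assay in DiscoveRx D2 cells. Compounds were added with an EC20 of dopamine (50 nM final) for 90 min at 37 deg C. Luminescence was read 1 h after detection reagent, with 57 uM dopamine as the EC100 control.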
D2 ag – activates the human D2 dopamine receptor. AID 624465. activation, % (test concentration not listed). DiscoveRx PathHunter D2 beta-arrestin, luminescence, 90 min; 100% = 57 uM dopamine signal. actives 0.084% (n = 360,000). P14416; in the data active = activation above about 40%; inconclusive = about 15% to 40%; inactive = below about 15%; also: compound concentration not given in the record; the text of the record calls up to 30% inactive
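DiscoveRx PathHunter D2 beta-arrestin cells (2,100/well) attached overnight, then compound-stimulated 90 min at 37 C in HBSS/10 mM HEPES/0.1% Tween-20 buffer; beta-galactosidase complementation read by luminescence after 1 h at ambient temperature. Dopamine 57 uM final (EC100) as control.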
Six1-Eya2 inh – blocks human Six1 binding to Eya2; AlphaScreen GST-Six1/His-Eya2 binding, biochemical; stronger effect = lower value; control for the full effect not named in the record; activity change, % (no concentration beside the values); actives 0.56% (n = 360,000); in the data active = activity change below about -65%; inconclusive = about -30% to -65%; inactive = above about -30%; also: % is scaled to controls: 0 for no effect and ±100 for the full control effect; compound concentration not given in the record
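Compounds are tested against tagged Six1 and Eya2 proteins bridged by glutathione donor and nickel acceptor beads; after a one-hour incubation at 37 °C without light, AlphaScreen emission is recorded.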
PINK1 modulator – PINK1 expression modulation | PINK1 immunofluorescence, high-content cytometry, 24 h | Potency, µM (doses to about 76.6 µM), for the others: at the top dose activation (PINK1 increase), usual class: activators | actives 0.2% (n = 410,000); active = well fitted activation curve with a large enough effect; inconclusive = small, poorly fitted or top-dose-only effect; inactive = flat fitted curve, though single readings scatter; cell line not stated here;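 also: potency is read from the fitted curve at half-maximal effect; % of control where 0% means no effect; nearly all actives have a fitted effect of over 65% in size; a mitochondrial uncoupler was the plate control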
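PINK1 protein level read as immunofluorescence by microplate cytometer in a fixed, stained stable cell line after 24 h exposure to five compound concentrations, with CCCP as control.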
CtBP-E1A inh – CtBP/E1A binding inhibition; AlphaScreen GST-E1A/His-CtBP binding, 1536-well; stronger effect = lower value; control for the full effect not named in the record; actives 0.49% (n = 340,000); activity change, % (no concentration beside the values); in the data active means activity change below about -65%; inconclusive means about -30% to -65%; inactive means above about -30%; also: % is scaled to controls: 0 for no effect and ±100 for the full control effect; compound concentration not given in the record
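GST-E1A and His-tagged CtBP (125 nM each as 5X stock) were preincubated with pin-transferred compound for 2 h at 37 °C in the dark, then glutathione donor and nickel acceptor beads were added for 1 h before AlphaScreen reading.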
TRPML1 ag – human mucolipin-1 channel agonism. Q9GZU1. TRPML1-expressing cells, Ca2+ dye fluorescence, FDSS; host cell line not named in the record; reference of the full effect not given here. actives 0.12% (n = 410,000). activation, % (no concentration beside the values); in the data active = activation above about 50%; inconclusive = about 30% to 50%; inactive = below about 30%; also: 0% is about no effect; the text of the record puts the active cut at 80%
Target sequence (Q9GZU1 whole entry, looked up): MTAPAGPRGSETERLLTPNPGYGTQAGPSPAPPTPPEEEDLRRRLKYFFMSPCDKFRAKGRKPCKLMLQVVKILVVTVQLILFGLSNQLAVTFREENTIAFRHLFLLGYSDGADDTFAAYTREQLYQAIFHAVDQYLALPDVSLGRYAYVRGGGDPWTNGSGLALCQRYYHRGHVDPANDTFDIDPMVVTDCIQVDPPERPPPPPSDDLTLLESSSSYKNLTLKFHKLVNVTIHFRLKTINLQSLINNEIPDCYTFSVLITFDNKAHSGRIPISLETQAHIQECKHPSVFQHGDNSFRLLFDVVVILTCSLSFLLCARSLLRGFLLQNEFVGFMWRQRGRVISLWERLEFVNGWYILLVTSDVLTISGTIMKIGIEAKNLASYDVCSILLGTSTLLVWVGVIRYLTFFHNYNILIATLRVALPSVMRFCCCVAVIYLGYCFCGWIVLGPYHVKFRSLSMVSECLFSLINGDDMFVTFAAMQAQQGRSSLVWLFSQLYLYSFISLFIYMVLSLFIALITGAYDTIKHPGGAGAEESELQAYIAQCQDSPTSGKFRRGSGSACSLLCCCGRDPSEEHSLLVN
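Kinetic FDSS Ca2+ read in Tet-induced TRPML1-DL cells (ABD Ca8 dye plus quencher, 45-90 min RT loading): baseline, then compound, then 110 s agonist window; EC80 agonist 54-4 at 4uM final added afterwards for a 110 s antagonist window.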
* hit, by the source's call; ? = inconclusive; / = not tested or not shown; [ ] = remark or other dose.

1. Cc1ccc(N(C)S(=O)(=O)c2cccc(C(=O)Nc3nc4ccccc4[nH]3)c2)cc1
2. Cc1cc(C)cc(NC(=O)N2CCCC2C(=O)Nc2ccc(-n3cnnn3)cc2)c1 (stereo unspecified)
3. Cc1nc(C(F)(F)F)ccc1C(=O)Nc1ccc(C(F)(F)F)cn1
4. O=C1Nc2ccc(S(=O)(=O)N3CCOCC3)c3cccc1c23
5. CC1(C)COCN1S(=O)(=O)c1ccc(C(=O)Nc2nnc(-c3ccc(Cl)s3)o2)cc1
6. Cc1nn(C)c(C)c1NC(=O)COc1ccc(F)cc1Br
7. O=C(CS(=O)(=O)c1ccccc1)Nc1nc2ccccc2s1
8. COc1cc(C2C3=C(CC(C)(C)CC3=O)N(C)C(=O)N2C)cc(OC)c1OC (stereo unspecified)
9. CCOC(=O)c1ccc(N2C(=O)Cc3ccccc3C2=O)cc1
10. CC(=O)N1CCc2cc(NC(=O)c3ccc(C)cc3)ccc21

| assay / entry | 1 | 2 | 3 | 4 | 5 | 6 | 7 | 8 | 9 | 10 |
| --- | --- | --- | --- | --- | --- | --- | --- | --- | --- | --- |
| D2 PAM | 19.3 | -7.6 | 1.6 | 5.1 | -21.4 | -7.4 | 1.1 | -6.1 | 0.9 | -8.8 |
| D2 ag | -2.2 | -4.3 | -5.3 | -4.8 | -0.6 | -5.1 | 2.7 | -0.8 | -2.7 | -1.5 |
| Six1-Eya2 inh | 0.0 | -1.3 | -9.8 | -0.4 | -5.2 | -1.6 | 2.7 | 2.1 | -2.5 | 14.6 |
| PINK1 modulator | 3.9% | 0.0% | 4.4% | 5.4%[38.3 µM] | -0.4% | -1.1% | 0.5% | -1.6%[38.3 µM] | -1.1% | 5.6%[38.3 µM] |
| CtBP-E1A inh | -16.9 | 7.2 | 4.7 | -1.6 | -10.4 | 7.2 | 22.6 | 7.5 | -5.2 | 29.9 |
| TRPML1 ag | 0.0 | 1.2 | -0.2 | -0.5 | 5.4 | 2.6 | 1.8 | 0.9 | -0.4 | 0.1 |

11. Cc1ccc(C)c(-c2[nH]ncc2CN2CCCC(CO)(Cc3ccccc3C)C2)c1 (stereo unspecified)
12. O=C(O)c1ccc(Cn2nnc3sc4c(c3c2=O)CCCC4)cc1
13. Cc1ccc(Cl)cc1NS(=O)(=O)Cc1ccccc1
14. Cc1ccc(NC(=O)c2cccc(OCc3c(C)noc3C)c2)cc1
15. CCOC(=O)c1c(C)[nH]c(N=Nc2cc(C(=O)O)cc(C(=O)O)c2)c1C
16. O=C1/C(=C/c2ccccc2)CCCc2ccccc21
17. Cc1ccccc1N1C(=O)C(Cl)=C(N2CCCCCC2)C1=O
18. COc1cccc(CC2(CO)CCCN(Cc3ccccc3-c3ccco3)C2)c1 (stereo unspecified)
19. O=C(Cn1cnc2ccc(Cl)cc2c1=O)NC1CCS(=O)(=O)C1 (stereo unspecified)
20. COC(=O)c1c(NC(=O)C(C)C)sc2c1C(C(=O)OC)CC2 (stereo unspecified)

| assay / entry | 11 | 12 | 13 | 14 | 15 | 16 | 17 | 18 | 19 | 20 |
| --- | --- | --- | --- | --- | --- | --- | --- | --- | --- | --- |
| D2 PAM | -17.7 | -2.9 | -1.8 | -22.4 | -10.6 | -0.4 | 4.0 | -11.6 | -11.6 | -6.6 |
| D2 ag | -4.7 | -7.0 | -2.3 | 4.8 | -6.6 | -6.6 | -3.4 | -1.2 | -1.9 | -2.6 |
| Six1-Eya2 inh | 16.9 | -5.4 | -10.8 | 4.6 | -3.2 | 8.3 | 60.6 | -1.6 | 3.6 | -0.1 |
| PINK1 modulator | 6.3% | 0.3% | 0.1% | -1.1% | 2.7% | -0.1% | 7.9% | 3.8% | 0.0% | -3.4% |
| CtBP-E1A inh | 0.0 | -11.8 | -4.5 | -9.6 | -0.8 | 10.1 | 46.7 | -5.0 | 0.9 | 8.5 |
| TRPML1 ag | -0.4 | -0.4 | -0.4 | 1.3 | 0.1 | 3.0 | 1.4 | -0.2 | 0.8 | -1.2 |

21. CCN(CC(=O)Nc1ccc(OC)cc1)C(=O)c1ccc(=O)n(Cc2ccccc2)n1
22. Cc1nc(SCC(=O)c2ccccc2)n[nH]1
23. O=C1c2cccc([N+](=O)[O-])c2C(=O)N1c1c[nH]c(=O)[nH]c1=O
24. CCOC(=O)/C=c1/s/c(=C/c2ccc3cc(OC)ccc3c2)c(=O)n1CC(=O)NCc1ccc2c(c1)OCO2
25. CCc1nc(N)c(C#N)c(-c2ccc(O)c(OC)c2)c1C
26. O=[N+]([O-])c1ccc(Oc2ccc(S(=O)(=O)N3CCOCC3)cc2)cc1
27. O=C1c2ccccc2-c2onc3c(N4CCN(CCO)CC4)cc(N4CCN(C(=O)c5ccco5)CC4)c1c23
28. Cc1cc(S(=O)(=O)N(Cc2ccccc2Cl)c2ccc3c(c2)CCC3)ccc1-n1cnnn1
29. Brc1cc(Br)c2ncnc(N3CCCCC3)c2c1
30. CC(C)(C)SCCNC(=O)CN1C(=O)c2ccccc2S1(=O)=O

| assay / entry | 21 | 22 | 23 | 24 | 25 | 26 | 27 | 28 | 29 | 30 |
| --- | --- | --- | --- | --- | --- | --- | --- | --- | --- | --- |
| D2 PAM | -5.2 | -7.2 | 7.3 | 0.4 | 0.8 | -4.9 | 2.1 | 13.9 | 4.9 | -6.3 |
| D2 ag | -0.8 | -2.5 | 6.3 | -1.3 | 7.8 | -2.4 | ? | -1.8 | -4.3 | -1.8 |
| Six1-Eya2 inh | -0.7 | 3.0 | 0.3 | 4.3 | 1.8 | -4.1 | ? | 4.0 | 14.7 | 5.6 |
| PINK1 modulator | 1.5% | -2.2% | -0.2% | ? | -1.0% | 0.6% | 0.4% | 3.5% | 1.3% | 2.0% |
| CtBP-E1A inh | -3.5 | 5.6 | 10.1 | -3.9 | -3.1 | -1.1 | -75.5* | 2.6 | 20.9 | 7.5 |
| TRPML1 ag | 0.9 | -1.0 | -0.7 | 9.9 | 3.5 | 0.7 | 0.8 | 1.7 | 2.7 | -0.3 |

Other records.
Fields – D2 PAM	D2 ag	Six1-Eya2 inh	PINK1 modulator	CtBP-E1A inh	TRPML1 ag
31: Cc1ccc(/C(O)=C2\C(=O)C(=O)N(C)C2c2ccccc2[N+](=O)[O-])cc1 (stereo unspecified)
→ 0.7	-1.9	-5.2	0.5%	9.7	0.8
32: COC(=O)C(NS(=O)(=O)c1ccccc1Cl)c1ccccc1 (stereo unspecified)
→ 1.4	4.5	-0.1	0.5%	7.9	-0.9
33: CN1CCN(/N=C/c2ccc(-c3ccccc3)cc2)CC1
→ -7.6	-4.5	?	9.1%	?	-0.1
34: CC(C)C[C@H]1CNC(=S)N1CC1CCN(CCCC2CCCC2)CC1
→ -19.8	-3.1	-5.2	1.2%	-1.1	-0.6
35: S=c1[nH]nc(COc2ccccc2)n1Cc1ccccc1
→ -0.3	-2.6	7.1	-2.1%	0.0	0.4
36: COc1ccc(CNN2CCCCC2C(=O)Nc2ccc(OC)c(OCC(C)C)c2)cc1OC (stereo unspecified)
→ -5.7	-1.9	4.3	0.8%	-1.3	-0.7
37: Cn1nc(C(=O)OCC(=O)Nc2ccc(S(N)(=O)=O)cc2)c2ccccc2c1=O
→ 2.0	-2.0	-0.9	-1.6%	-0.6	-0.2
38: Cc1ccc(S(=O)(=O)N2CCCC(C(=O)NCC3CCCO3)C2)cc1 (stereo unspecified)
→ -6.3	-2.5	-9.2	0.4%	0.3	-0.1
39: O=C(COC(=O)C1CC(=O)N(CCc2ccccc2)C1)c1ccc[nH]1 (stereo unspecified)
→ -17.4	-0.4	1.0	0.2%	-0.9	-0.4
40: O=C(CSc1ccc2nnc(-c3ccncc3)n2n1)NCc1ccco1
→ -3.0	-4.4	-14.2	0.3%	-6.4	-0.5
41: COc1cccc(-c2cnc(C(O)c3ccc(F)c(F)c3)[nH]2)c1 (stereo unspecified)
→ -10.8	-3.8	-1.0	0.0%	-0.5	-0.6
42: CC1CCN(C2(O)C(=O)Nc3ccc(Cl)cc32)CC1 (stereo unspecified)
→ -12.6	-1.3	1.6	1.4%	5.5	-0.4
43: Cc1ccc(C)c(NC(=O)C2CCCN(c3cnccn3)C2)c1 (stereo unspecified)
→ -9.8	-0.3	5.6	5.6%	-2.1	-0.8
44: COc1ccc(-n2cc(-c3ccccc3)c3c(N4CC(C)OC(C)C4)ncnc32)cc1 (stereo unspecified)
→ 18.2	4.5	-29.8	2.0%	-18.1	1.4
45: COCCCN1C(=O)c2ccc(C(=O)OCC(=O)NCCc3ccccc3)cc2C1=O
→ 0.3	0.9	3.0	0.8%	4.8	0.7
46: CC(O)(c1ccccc1)c1nc(-c2ccc(Cl)cc2)cs1 (stereo unspecified)
→ -12.9	-0.8	0.4	8.6%	1.1	-0.1
47: CCSc1nc2c(cnn2-c2ccc(C)cc2)c(=O)[nH]1
→ -4.1	-2.8	-4.5	1.8%	-0.6	-0.8
48: Cc1ccc(N(Cc2ccccc2)C(=O)c2ccc(C)c(S(=O)(=O)N3CCOCC3)c2)cc1
→ -4.9	-2.8	5.5	0.2%	/	1.0
49: CC1CCCN(C(=O)c2ccc(CNc3c(N4CCCCC4)c(=O)c3=O)cc2)C1 (stereo unspecified)
→ -5.5	-4.1	-5.8	1.9%	0.9	-0.7
50: CCOc1ccc(S(=O)(=O)N2CCN(Cc3ccc4c(c3)OCO4)CC2)cc1C
→ -1.3	-2.2	-11.8	-1.8%	-12.7	-0.1
51: O=C1NCC2=C1C(c1ccc(Br)cc1)Nc1ccccc1N2 (stereo unspecified)
→ -11.6	-0.1	-3.4	0.6%[38.3 µM]	-4.4	-0.4
52: Cc1ccc2nc(-c3ccccc3)cc(C(=O)N3CCN(c4ccccc4O)CC3)c2c1
→ -1.5	3.3	-11.2	-2.1%	-3.8	-0.2
53: COc1cccc(CNCc2cccc(OC)c2O)c1O
→ -18.5	1.0	6.8	-5.7%	-19.7	1.7
54: O=C(NNC(=O)C1CCCO1)c1ccccc1Cl (stereo unspecified)
→ 0.4	-3.7	1.2	0.5%	3.7	-0.5
55: CN(C(=O)c1ccc(OC2CCN(CCc3ccccc3)CC2)cc1)C1CCOC1 (stereo unspecified)
→ -14.2	-0.7	7.5	1.2%	-0.1	0.0
56: Cc1ccc(-n2nnnc2-c2cccs2)cc1[N+](=O)[O-]
→ 3.9	-0.7	0.0	-0.3%	0.5	0.4
57: CCOC(=O)C1=C(COC(=O)CNC(=O)c2ccc(Cl)cc2Cl)NC(=O)NC1C (stereo unspecified)
→ 0.0	-3.6	0.4	0.9%	8.0	0.8
58: COCc1ccc(C(=O)N2CCCC(N3CCN(c4ccccc4C)CC3)C2)s1 (stereo unspecified)
→ -33.5	-3.3	-7.1	-1.4%	2.9	-1.0
